Screens (PubChem BioAssay)
RE007 growth inh = less growth of the S. pombe RE007 Vpr strain. S. pombe RE007 Vpr strain, BacTiter-Glo ATP luminescence, 24 h; control for the full effect not named in the record. Potency, µM (top dose mostly 92.2 µM), for the others: at the highest dose activity change, negative = less growth. actives 0.21% (n = 360,000). AID 651644; active = well fitted falling curve with a large enough effect; inconclusive = small, poorly fitted or top-dose-only effect; inactive = no such curve, though single readings can be large or run the other way;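 also: % is scaled to controls: 0 for no effect and ±100 for the full control effect; nearly all actives have a fitted effect of over 50% in size; the assay follows cell death caused by Vpr and the record does not say whether a fall means rescue or toxicity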
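Fission yeast strain RE007, carrying one chromosomally integrated HIV-1 vpr copy, was seeded at OD 0.01 in PMG+AL medium with 23 nL pinned compound. After 24 h at 30 °C and 99% humidity, viability was read by BacTiter-Glo luminescence.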
LASV entry inh = blocks Lassa virus binding to or entry into cells. Lassa virus pseudotype entry inhibition, cell reporter; control for the full effect not named in the record. Potency, µM (titrated, usually from 37.9 µM), for the others: at the top dose activity change, negative = inhibition, hits mostly inhibitors. actives 1.2% (n = 300,000); active means well fitted inhibition curve with a large enough effect; inconclusive means small, poorly fitted or top-dose-only effect, or effect the other way; inactive means flat fitted curve, though single readings scatter; tested in HEK293 cells; also: % is scaled to controls: 0 for no effect and ±100 for the full control effect; nearly all actives have a fitted effect of over 50% in size; luciferase read-out
StopGo reporter = FMDV 2A StopGo reporter, luciferase signal; AID 1159524; Potency, µM (doses to about 57.9 µM), for the others: at the highest dose signal change, negative = less light; human cells with a luciferase reporter of 2A StopGo recoding; control for the full effect not named in the record; actives 1.2% (n = 410,000); active = well fitted falling curve with a large enough effect; inconclusive = small, poorly fitted or top-dose-only effect; inactive = no such curve, though single readings can be large or run the other way; tested in HEK293T cells; also: % is scaled to controls: 0 for no effect and ±100 for the full control effect; nearly all actives have a fitted effect of over 45% in size; luciferase light after 4 h
NS1 inh = blocks influenza NS1 protein function. Potency, µM (titrated, usually from 46.1 µM), without a hit: top-dose activity, positive = more growth. S. cerevisiae slowed by influenza A NS1, growth recovery by OD600. actives 0.4% (n = 270,000); active means well fitted rising curve with a large enough effect; inconclusive means small, poorly fitted or top-dose-only effect; inactive means no such curve, though single readings can be large or run the other way; also: nearly all actives have a fitted effect of over 50% in size
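S. cerevisiae expressing influenza A NS1, grown in glucose, washed, then diluted 1:100 into pH 6.0 -URA galactose medium with 23 nl compound. Growth recovery read as OD600; NS1-free strain serves as control.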
Cruzain Triton = inhibitors of Trypanosoma cruzi cruzain with detergent; P25779; purified cruzain, Z-FR-AMC fluorescence, 0.01% Triton; Potency, µM, without a hit: max response, negative = inhibition, usual class: inhibitors; actives 0.43% (n = 200,000); AID 1478;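 also: plate controls were neutral wells for no effect and buffer without enzyme for full effect; nearly all actives have a fitted effect of over 40% in size; top concentration of the series not given in the record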
Target sequence (P25779 123-467 limits assumed): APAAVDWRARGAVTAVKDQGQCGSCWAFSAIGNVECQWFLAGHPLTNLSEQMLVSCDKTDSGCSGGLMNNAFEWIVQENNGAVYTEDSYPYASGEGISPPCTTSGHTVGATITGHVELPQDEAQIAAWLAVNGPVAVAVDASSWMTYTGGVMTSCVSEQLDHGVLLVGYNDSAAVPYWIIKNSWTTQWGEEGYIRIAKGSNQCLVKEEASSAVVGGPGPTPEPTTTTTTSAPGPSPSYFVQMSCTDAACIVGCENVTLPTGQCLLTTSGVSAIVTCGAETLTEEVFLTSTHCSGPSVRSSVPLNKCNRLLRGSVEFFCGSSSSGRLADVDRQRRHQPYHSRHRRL
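Read-out: AMC fluorescence (360 nm excitation, 450 nm emission), four reads over 2 min, first-to-third difference used. Conditions: cruzain 1.5 nM, Z-FR-AMC 2 uM, pH 5.5 acetate, 5 mM DTT, 0.01% Triton X-100.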
Marburg entry inh = blocks Marburg virus binding to or entry into cells. Potency, µM (doses to about 37.8 µM), for inactives: top-dose activity change, negative = inhibition, hits mostly inhibitors. Marburg virus pseudotyped entry inhibition, cell reporter; control for the full effect not named in the record; about a third of the inactives were read at about 46 µM. actives 1.8% (n = 300,000); active = well fitted inhibition curve with a large enough effect; inconclusive = small, poorly fitted or top-dose-only effect, or effect the other way; inactive = flat fitted curve, though single readings scatter; tested in HEK293 cells; about a fifth of its hits are not listed in these tables; also: % is scaled to controls: 0 for no effect and ±100 for the full control effect; luciferase read-out
SARS PLP yeast = blocks SARS-CoV papain-like protease in a yeast assay | S. cerevisiae expressing SARS-CoV PLpro, growth rescue; control for the full effect not named in the record | Potency, µM (series often up to 32.9 µM), inactives show at the highest dose activity, positive = growth rescue | actives 0.19% (n = 330,000); active means well fitted rising curve with a large enough effect; inconclusive means small, poorly fitted or top-dose-only effect; inactive means no such curve, though single readings can be large or run the other way; also: 0% is about no effect; nearly all actives have a fitted effect of over 55% in size; growth read by luminescence after 48 h
Cruzain noTriton = blocks cruzain activity in detergent-free assay; AID 1476; Potency, µM, for inactives: max response, negative = inhibition, hits mostly inhibitors; actives 2.3% (n = 200,000); purified cruzain, Z-FR-AMC fluorescence, no detergent;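 also: plate controls were enzyme without inhibitor for no effect and buffer without enzyme for full effect; nearly all actives have a fitted effect of over 40% in size; top concentration of the series not given in the record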
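Detergent-free condition (0.00005% Triton X-100) in acetate buffer pH 5.5 with DTT. 1.5 nM enzyme and compound were pre-mixed 15 min, then 2 uM Z-FR-AMC substrate added; reaction progress from fluorescence change between first and third reads (60 s).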
* marks the source's active call; other numbers are inactive results; ? = inconclusive; / = not tested or not shown; & = joins results of further samples; [ ] = dose if it differs, or a comment. Unless noted, calls follow the shape of the dose curve; as a rule, active = well fitted curve in the direction sought with a large enough effect; inconclusive = small, poorly fitted or top-dose-only effect, or another doubt; inactive = no such curve, though single readings can be large; an effect the other way counts as inactive or inconclusive. Potency is read from the fitted curve at half-maximal effect.

Below each compound – Cruzain Triton	StopGo reporter	Marburg entry inh	SARS PLP yeast	LASV entry inh	RE007 growth inh	Cruzain noTriton	NS1 inh
- N#C/C(C(=O)Oc1ccccc1)=C1\C=CC=CN1
    -2.8%	37%[activator]	1%	6%	-7%	-9%	11%	-14%
- COc1ccc(/C=C/CN2CCCC(C(=O)c3cc(F)ccc3F)C2)cc1 (stereo not drawn)
    /	?	-15%[46.1 µM]	0%	3%	-23%	/	1%
- O=C1CCN(S(=O)(=O)c2ccc(Cl)cc2)CC1
    /	-8%	0%[46.1 µM]	3%	11%[46.1 µM]	11%	/	8%
- CCOC(=O)C(CC)N1CCN(Cc2ccc(F)cc2)C(=O)C1=O (stereo not drawn)
    -0.9%	-25%	/	/	8%[46.1 µM]	/	19%	/
- O=C(O)CSc1nc2ccccc2nc1N1CCCCC1
    -5.8%	-4%	2%[46.1 µM]	/	-12%[46.1 µM]	/	10%	/
- Cc1onc(C(=O)N2CCN(Cc3ccccc3)CC2)c1[N+](=O)[O-]
    2.6%	-25%	12%	5%	-4%	8%	-11%	5%
- Cc1c(Br)c(C(=O)NCc2cc3cc(Cl)ccc3[nH]2)nn1C
    -9.1%	-5%	-12%	-19%	?	5%	-16%	-4%
- COc1ccc(NC2=CC(=O)CC(C)(C)C2)cc1
    /	10%	/	-1%	/	0%	/	1%
- NC(=O)C1CCN(C(=O)CCc2ccsc2)CC1
    /	15%	1%[46.1 µM]	-2%	4%[46.1 µM]	-3%	/	4%
- O=C(CSc1nc2c([nH]c3ccccc32)c(=O)n1-c1ccccc1)N1CCCCCC1
    -0.7%	8%	/	/	17%[46.1 µM]	/	0%	/
- O=C(Cc1cccs1)Nc1cccc(C(=O)Nc2ccco2)c1
    -0.2%	63%[activator]	-26%	-5%	-1%	1%	22%	-14%
- CCCn1c(N2CCOCC2)nc2c1c(=O)[nH]c(=O)n2C
    2.8%	/	5%	17%	-1%	-4%	9%	3%
- Oc1ccccc1CNCCCN1CCOCC1
    /	-11%	15%	-5%	-8%	-3%	/	0%
- Cc1cccc(Cn2c(N3CCc4ccccc4C3)nc3c2c(=O)[nH]c(=O)n3C)c1
    1.0%	-14%	8%	0%	-4%	0%	?	3%
- Oc1ccc(/C=N/NC(=S)N2CCOCC2)cc1
    /	18%	-1%[46.1 µM]	-1%	/	4%	/	0%
- CN(C)S(=O)(=O)c1ccc(NC(=O)N2CCN(c3ccccc3Cl)CC2)cc1
    -5.6%	?	-21%	0%	-16%	-11%	1%	6%
- O=C(Nc1ccc(C(=O)NCc2ccccc2Cl)cc1)C1=CSCCO1
    /	46%[activator]	?	2%	14%[46.1 µM]	6%	/	8%
- COc1ccc(OC)c(CNS(=O)(=O)c2c(C)nc3scc(C)n3c2=O)c1
    /	-17%	/	1%	/	3%	/	-9%
- Clc1ccc(C2CC(c3ccco3)n3ncnc3N2)cc1Cl (stereo not drawn)
    -16%	0%	4%	18%	-1%	5%	-7%	-5%
- Cc1ccsc1C(=O)C1CCCN(Cc2cnc(N3CCCC3)s2)C1 (stereo not drawn)
    /	-19%	?	0%	-10%	-24%	/	-3%
- COc1cccc(CN2CC(C(=O)NCC3CCOCC3)CCC2=O)c1 (stereo not drawn)
    /	-10%	/	2%	/	-7%	/	5%
- CCn1c(=O)c(=O)n(CC)c2cc(S(=O)(=O)N3CCc4ccccc43)ccc21
    1.3%	-22%	/	7%	/	3%	0%	2%
- Cc1ccc(NC(=O)c2nc(-c3ccncc3)no2)c(Cl)c1
    -1.0%	-2%	/	/	5%[46.1 µM]	/	4%	/
- COc1cc(NC2c3ccccc3C(=O)N2c2cc(C)ccn2)cc(OC)c1OC (stereo not drawn)
    2.5%	-8%	/	1%	/	-1%	-5%	12%
- CCCNS(=O)(=O)c1cc2c3c(c1)CCN3C(=O)CC2
    /	-11%	/	-2%	/	-12%	/	-3%
- FC(F)(F)c1ccccc1CNCCc1c[nH]c2ccccc12
    /	54%[activator]	/	2%	/	-14%	/	3%
- CCC/C=C(\CCC)C(NS(=O)(=O)c1ccc(C(F)(F)F)cc1)c1ccccc1 (stereo not drawn)
    -8.8%&-3.5%	/	-44%&-44%	-28%	-10%	/	?	-43%
- CC(C)C(NS(=O)(=O)c1cccc2nsnc12)C(=O)Nc1nc2ccc(Cl)cc2s1 (stereo not drawn)
    -3.6%	?	2%	8%	/	5%	?	16%
- COc1ccc(OC)c(C2N(c3ccccn3)C(=O)C3CCCN32)c1 (stereo not drawn)
    3.4%	7%	8%	0%	4%	13%	-5%	-12%
- Cc1csc(CN(C)C(=O)C2CCC(=O)N(CCN(C)C)C2)n1 (stereo not drawn)
    /	0%	/	2%	/	0%	/	18%
- CCN(CC)c1nn2c(=O)c(C(=O)NCc3cccc(C)c3)cnc2s1
    -5.0%	-14%	/	/	?	/	1%	/
- O=C(COc1coc(CN2CCN(c3ccccc3F)CC2)cc1=O)Nc1ccccc1
    /	-23%	11%[46.1 µM]	1%	15%	11%	/	/
- CCCn1cnc2c(Sc3c([N+](=O)[O-])ncn3C)nc(N)nc21
    /	?	3%	/	?	7%	/	/
- CS(=O)(=O)Nc1cccc2cccnc12
    6.7%	-1%	-13%	-3%	-20%	-4%	0%	-20%
- CCC(=O)N1c2ccc(S(=O)(=O)CCC(=O)N3CCN(c4cc(C)ccc4C)CC3)cc2CC1C (stereo not drawn)
    -1.3%	?	2%[46.1 µM]	/	-11%[46.1 µM]	/	-9%	/
- O=C1CCN(Cc2ccco2)C(=S)N1
    /	9%	0%[46.1 µM]	/	1%[46.1 µM]	5%	/	/
- Cc1nc(OCC(=O)c2ccc(Cl)cc2)c(C#N)c2c1COC(C)(C)C2
    -2.2%	-24%	-12%	2%	-5%	3%	-7%	4%
- O=C(CSc1oc(-c2ccc(F)cc2)nc1S(=O)(=O)c1ccc(F)cc1)NCC1CCCO1 (stereo not drawn)
    0.9%	15%	5%&5%	?	-6%	2%	-14%	4%
- Fc1ccc(NC(=S)NN=Cc2ccccc2Cl)cc1
    /	5%	?	/	-10%[46.1 µM]	-21%	/	/
- CCc1c(C)sc(NC(=O)/C=C/C(=O)O)c1C(N)=O
    /	34%[activator]	/	0%	/	-6%	/	-2%
- FC(F)(F)c1cc(-c2cccs2)nc(N2CCOCC2)n1
    -13%	-11%	?	3%	-3%	3%	0%	-23%
- CSCC(=O)Nc1cc(C)on1
    /	-7%	-15%[14.2 µM]	2%	3%	8%	/	4%
- O=C(NNC(=O)c1ccccc1Cl)c1cccnc1
    /	19%	1%[46.1 µM]	2%	-6%	-6%	/	?
- Cc1cccc(OCc2nc(CC(=O)Nc3ccc(Cl)cc3)cs2)c1
    -7.2%	-2%	7%[46.1 µM]	/	-1%[46.1 µM]	/	-10%	/
- N#Cc1c(-c2ccco2)cc(-c2ccc(F)cc2)nc1N
    ?	-18%	?	0%	-11%	-29%	9%	2%
- CCOCCCn1c(SCC(=O)Nc2ccc(OC)cc2)nc2ccccc2c1=O
    /	-26%	-4%[46.1 µM]	1%	-1%[46.1 µM]	146%	/	3%
- Clc1ccc(NCc2cccnc2)c(Cl)c1
    /	-24%	26%	-7%	-2%	8%	/	-37%
- Cc1sc2c(c1C)C(c1cccs1)=NCC(=O)N2CC(=O)NCc1cccs1
    -4.0%	/	-21%	-6%	?	13%	-5%	-20%
- FC(F)(F)c1cc(C(F)(F)F)c2ccc(N/N=C/c3ccccc3)nc2n1
    3.9%	-9%	-3%	-1%	17%	3%	-24%	-2%
- COc1cccc(C(=O)Nc2cnc(NC(=O)c3ccco3)cc2C)c1
    2.2%	32%[activator]	13%	-5%	18%	2%	1%	-6%
- Cc1ccc(NC(=O)Cn2c(=O)oc3ccccc32)cc1Cl
    -6.1%	-10%&-21%	0%&0%	-2%	-1%	4%	3%	1%
- COc1ccc(-n2cnnc2SC(C)C(=O)Nc2cccc([N+](=O)[O-])c2)cc1 (stereo not drawn)
    -0.9%	-19%	29%	10%	7%	3%	-2%	9%
- Cc1ccc(-c2onc(C)c2C)cc1S(=O)(=O)N1CCOc2ccc(Cl)cc21
    -2.2%	?	/	/	-22%[46.1 µM]	/	?	/
- CCC1Sc2ccc(S(=O)(=O)CCC(=O)NCc3ccc(C)o3)cc2NC1=O (stereo not drawn)
    /	2%	/	-1%	/	-7%	/	7%
- CN(C1CCCCC1)S(=O)(=O)c1ccc(NC(=O)C2CCCCC2)cc1
    -4.4%	-22%	?	-1%	?	-17%	1%	-15%
- O=C(c1cccs1)N1CCN(c2ccc(F)cc2)CC1
    11%	-1%	0%	0%	4%	-5%	3%	-2%
- Cc1ccc(C(=O)O)cc1S(=O)(=O)N1CCSCC1
    0.5%	-13%	0%	-19%	3%	16%	4%	-3%
- O=C(COc1ccc2c3c(c(=O)oc2c1)CCC3)NCc1cccnc1
    /	-1%	/	1%	/	3%	/	3%
- O=C(N/N=C/c1ccc(-c2ccccc2C(=O)O)o1)c1cccs1
    -10.0%	21%	?	1%	26%[46.1 µM]	-20%	-2%	12%
- CCCCNC(=O)CN1CCN(c2ncc(NC(=O)c3ccc(Cl)cc3)cc2C(=O)O)CC1
    0.1%	-16%	/	/	17%[46.1 µM]	/	11%	/

The listing continues.
Below each compound – Cruzain Triton	StopGo reporter	Marburg entry inh	SARS PLP yeast	LASV entry inh	RE007 growth inh	Cruzain noTriton	NS1 inh
- CCN(CC)S(=O)(=O)c1ccc(N2CCOCC2)c(NS(=O)(=O)c2ccc(OC)cc2)c1
    /	6%	3%	1%	/	-11%	/	-71%
- COC(=O)C1=C(C)NC(=O)NC1c1cn(-c2ccccc2)nc1-c1ccc(OC)c(Br)c1 (stereo not drawn)
    -12%	4%	?	/	-28%[46.1 µM]	/	-18%	/
- O=S(=O)(NCc1ccccn1)c1ccc2c(c1)OCCO2
    2.2%	55%[activator]	-1%	1%	14%	1%	-1%	-12%
- CCOC(=O)c1c(C)c(C(=O)NCc2ccc3c(c2)OCO3)c(C)n1C
    1.5%	14%	15%	6%	-21%	14%	3%	-9%
- CCOC(=O)CSc1nc2c(sc(=S)n2CCc2ccccc2)c(=O)n1Cc1ccco1
    -2.5%	-26%	0%&-27%	5%	0%	-14%	-26%	-36%
